Assay outcomes (PubChem BioAssay)
VDR inhibitor: Inhibitors of the vitamin D receptor (VDR): qHTS. 400,000 tested, 0.93% active. Potency, µM, without a hit: max response, negative = inhibition, usual class: inhibitors. VDR-SRC2-3 peptide fluorescence polarization, 2 h. AID 504847, 2011; active means well fitted inhibition curve with a large enough effect; inconclusive means small, poorly fitted or top-dose-only effect, or another doubt; inactive means no such curve, though single readings can be large or run the other way; further: series mostly up to about 120 µM
Target sequence (P11473 whole entry, looked up): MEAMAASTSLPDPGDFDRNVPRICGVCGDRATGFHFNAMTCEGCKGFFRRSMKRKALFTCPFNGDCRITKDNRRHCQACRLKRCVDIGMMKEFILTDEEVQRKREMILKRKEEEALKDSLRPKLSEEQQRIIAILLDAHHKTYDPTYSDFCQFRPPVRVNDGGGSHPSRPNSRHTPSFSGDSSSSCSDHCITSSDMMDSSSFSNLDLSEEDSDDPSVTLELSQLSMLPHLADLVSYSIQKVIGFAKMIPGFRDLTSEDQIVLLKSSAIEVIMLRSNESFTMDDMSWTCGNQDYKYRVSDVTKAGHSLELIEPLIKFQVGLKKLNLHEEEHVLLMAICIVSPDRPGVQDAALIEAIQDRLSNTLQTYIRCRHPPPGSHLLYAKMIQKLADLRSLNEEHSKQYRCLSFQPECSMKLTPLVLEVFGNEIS
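Fluorescence polarization assay of small-molecule disruption of VDR binding to coregulator peptide SRC2-3. Compounds and controls pin-transferred, then read after 2 h incubation at ambient room temperature.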
Starred values were filed as active, the others as inactive; u = inconclusive; & = joins results of further samples. On the % scale 0 is the no-effect control and ±100 the full control effect; potency means the concentration at half of the fitted maximal effect. Only part of the results is shown; rates above refer to the full screens.

VDR inhibitor	canonical_smiles
-9%	COC(=O)C(NC(=O)c1ccco1)(Nc1nc(C2CC2)cs1)C(F)(F)F (centres undefined)
3%&5%	Cc1ccc(NS(=O)(=O)c2ccc3c(c2)NC(=O)CCS3)c(Br)c1
16%	CCOC(=O)c1cc(C)n(CC2CCC(C(=O)Nc3ccc(C(=O)OC)cc3)CC2)c1C (centres undefined)
2%	S=C(NCc1ccccc1Cl)NC1CCCC1
-23%	O=C(/C(=C/c1ccc(Cl)cc1)c1nc2ccccc2[nH]1)c1ccccc1
7%	CC(=O)N/C(=C\c1ccccc1)C(=O)OCC(=O)Nc1cc(S(=O)(=O)N(C)C)ccc1Cl
-18%	Cc1nc(N=C(N)N)nc2ccccc12
-1%	Cc1ccc(CCNS(=O)(=O)c2ccc3c(c2)NC(=O)C(C)C(=O)N3)cc1 (centres undefined)
4%	O=C(COc1ccccc1Cl)Nc1cc(Cl)ccc1Oc1ccccc1
2%	CCc1ccccc1NC(=O)c1cccc(N2C(=O)C3C4CCC(C4)C3C2=O)c1 (centres undefined)
-8%	CCOC(=O)c1cc(C)sc1NC(=O)CSC1=NCCS1
-7%	O=C(CSc1ncnc2ccccc12)NCc1ccc2c(c1)OCO2
-5%	FC(F)(F)c1cccc(-c2nnn3c2nc(NC2CCCCC2)c2ccccc23)c1
-1%	O=C(CNS(=O)(=O)c1cccc2nsnc12)NC1CCCCC1
-4%	N#Cc1nc(-c2ccc(F)cc2)oc1N1CCN(C(=O)c2ccco2)CC1
6%	Cc1cccc(-n2nnc(C(=O)NCc3ccccc3)c2N)c1
-12%	CCCCOc1ccc(-c2nnn(CC(=O)NCCc3c[nH]c4ccccc34)n2)cc1
2%	CN(CC(=O)NC(=O)NC1CCCCC1)CC(=O)Nc1ccc(Cl)cc1
6%	O=C(O)c1ccc2ccc3ccccc3c2c1
-5%	O=C(CC1C(=O)NCCN1Cc1ccc(F)c(F)c1)NCCn1cccn1 (centres undefined)
-4%	COc1ccc(B(O)O)c(CN2CCN(C(=O)OC(C)(C)C)CC2)c1
8%	O=C(c1ccco1)N1CCN(C(=O)c2cccc3c2C(=O)N(Cc2cccnc2)C3)CC1
0%	Cc1cc2c(c(=O)n1CCN(C)C)C(c1ccc(Br)cc1)C(C#N)=C(N)O2 (centres undefined)
-1%	O=C(NCc1ccc(Cl)cc1)c1ncn[nH]1
u	O=C(COc1ccccc1)NC(NC(=S)Nc1ccccc1C(=O)O)C(Cl)(Cl)Cl (centres undefined)
10%	CN1CC2(C(=O)c3ccccc3)CN(C)CC(C(=O)c3ccccc3)(C1)C2
11%	O=C(CCCOc1ccccc1)N1CCCc2ccccc21
19%	C=CCNC(=O)COC(=O)CCC(=O)c1cccs1
2%	O=C(Nc1ccc2sccc2c1)c1cccc(N2C(=O)CCC2=O)c1
-14%	Cc1ccc(/C(O)=C2\C(=O)C(=O)N(C)C2c2ccc(Br)cc2)cc1 (centres undefined)
8%	Cn1c(CNC(=O)C2CCC(=O)N(CCc3cccc(F)c3)C2)nc2ccccc21 (centres undefined)
-12%	CCC1(CC)NC(=O)N(CC(=O)Nc2ccc(C)cc2C)C1=O
5%	O=C(Nc1ccc2c(c1)Cc1ccccc1-2)c1ccc(Br)o1
16%	COc1ccccc1/C=C/C=N/n1c(-c2ccccc2)n[nH]c1=S
16%	Cc1ccc(C)c(Cn2cnc3c(cnn3-c3ccc(F)cc3)c2=O)c1
-6%	COc1ccccc1CNS(=O)(=O)c1ccc(N2CCCC2)cc1Br
40µM*	CC1=NN(c2ccccc2)C(=O)/C1=C\C=C\c1ccccc1
-2%	Cc1ccc(-c2c(C#N)c(N)n(-c3ccccc3)c(=O)c2C#N)cc1
-13%	CCOc1ccc(OCc2ccc(C(=O)NN)o2)cc1
11%	O=C(c1cccc(S(=O)(=O)N2CCCCC2)c1)N1CCOCC1
-9%	COc1ccc(N2C3=[N+](CCCC3)CC2(C)O)cc1 (centres undefined)
4%	COCCNc1ncnc2c1cnn2-c1cc(Cl)ccc1C
3%	O=C(CSc1nc2c([nH]c3ccccc32)c(=O)n1-c1ccccc1)Nc1ccccc1F
-8%	CCn1c(SCC(=O)N2CCCCC2)nnc1-c1ccc(S(=O)(=O)N2CCN(C)CC2)cc1
1%	CC(C)c1ccc(N(C(=O)CNC(=O)c2ccco2)C(C(=O)NC2CCCC2)c2cccnc2)cc1 (centres undefined)
-29%	O=C(O)C1=C[C@@H](c2ccc(F)cc2)C[C@@H](OCCCCO)O1
5%	Cc1nnc(SCc2ccccc2)[nH]c1=O
-1%	COC(=O)C1=C(N)Oc2cc(C)n(Cc3cccnc3)c(=O)c2C1c1cccc(OC)c1OC (centres undefined)
-6%	CCCC(=O)Nc1ccc(NCc2ccc(C)s2)cc1
-17%	CCCCn1nnnc1NCc1ccc(C)cc1

(more compounds)
VDR inhibitor	canonical_smiles
11%	CCOC(=O)C1Cn2c(nc3c(c2=O)C2(CCCC2)Cc2ccccc2-3)S1 (centres undefined)
-9%	O=C(Cn1nc(CNc2ccc(Cl)cc2)[n+]2c1CCCCC2)c1ccccc1
1%	COC(=O)c1ccc(NC(=O)CN2C(=O)NC3(CCC(C)CC3)C2=O)cc1 (centres undefined)
10%	O=C(NCc1ccccc1)N1CCN(c2ccccc2F)CC1
3%	COc1cc(NC(=O)COC(=O)Cc2ccsc2)cc(OC)c1
-13%	COC(=O)c1cccc2c1-c1ccccc1/C2=N/O
1%	CCC1C(=O)NCCN1C(=O)c1ccc(OC)c(OC2CCN(C(C)=O)CC2)c1 (centres undefined)
-10%	O=C(c1ccc(F)cc1)C1CCN(Cc2ccccc2)CC1
-14%	CCN(CCNC(=O)C1CCN(S(=O)(=O)c2cccc3cccnc23)CC1)c1ccccc1
-8%	N#CCN1C(=S)N=C(Nc2cccc(Cl)c2)C12CCCCC2
-4%	COc1ccc(-c2cc(C(=O)N3CCCCCC3)c3ccccc3n2)cc1
-7%	NC(=O)c1ccc(NC(=O)COC(=O)c2c[nH]c3ccccc23)cc1
2%	COc1cccc(-c2cc(C(=O)NCc3ccc(F)cc3)no2)c1
8%	Cc1ccc(S(=O)(=O)N2CCN(Cc3cc(Br)ccc3O)CC2)cc1
-7%	Cc1ccc(C(=O)Nc2cccc(NC(=O)c3ccc(C)c([N+](=O)[O-])c3)n2)cc1[N+](=O)[O-]
-12%	CC1CCCCN1CCn1c(=S)[nH]c2ncccc2c1=O (centres undefined)
-2%	COC1CCN(C(=O)C2CCC(=O)N(C3CCCCCC3)C2)CC1 (centres undefined)
7%	CCC1C(C#N)=C(SC)NC2=C1C(=O)CC(C)(C)C2 (centres undefined)
-10%	COc1ccccc1N(CC(=O)N1CCc2ccccc2C1)S(C)(=O)=O
5%	O=C(Nc1ccc(F)cc1)OCCOc1ccc(Br)cc1
5%	COc1ccc(N(C(=O)COc2ccccc2)C2C=CS(=O)(=O)C2)cc1 (centres undefined)

Structural class, those above containing four or more nitrogen atoms.
VDR inhibitor	canonical_smiles
-18%	Cc1nc(N=C(N)N)nc2ccccc12
-5%	FC(F)(F)c1cccc(-c2nnn3c2nc(NC2CCCCC2)c2ccccc23)c1
-1%	O=C(CNS(=O)(=O)c1cccc2nsnc12)NC1CCCCC1
-4%	N#Cc1nc(-c2ccc(F)cc2)oc1N1CCN(C(=O)c2ccco2)CC1
6%	Cc1cccc(-n2nnc(C(=O)NCc3ccccc3)c2N)c1
-12%	CCCCOc1ccc(-c2nnn(CC(=O)NCCc3c[nH]c4ccccc34)n2)cc1
2%	CN(CC(=O)NC(=O)NC1CCCCC1)CC(=O)Nc1ccc(Cl)cc1
-5%	O=C(CC1C(=O)NCCN1Cc1ccc(F)c(F)c1)NCCn1cccn1 (centres undefined)
8%	O=C(c1ccco1)N1CCN(C(=O)c2cccc3c2C(=O)N(Cc2cccnc2)C3)CC1
0%	Cc1cc2c(c(=O)n1CCN(C)C)C(c1ccc(Br)cc1)C(C#N)=C(N)O2 (centres undefined)
-1%	O=C(NCc1ccc(Cl)cc1)c1ncn[nH]1
8%	Cn1c(CNC(=O)C2CCC(=O)N(CCc3cccc(F)c3)C2)nc2ccccc21 (centres undefined)
16%	COc1ccccc1/C=C/C=N/n1c(-c2ccccc2)n[nH]c1=S
16%	Cc1ccc(C)c(Cn2cnc3c(cnn3-c3ccc(F)cc3)c2=O)c1
-2%	Cc1ccc(-c2c(C#N)c(N)n(-c3ccccc3)c(=O)c2C#N)cc1
4%	COCCNc1ncnc2c1cnn2-c1cc(Cl)ccc1C
3%	O=C(CSc1nc2c([nH]c3ccccc32)c(=O)n1-c1ccccc1)Nc1ccccc1F
-8%	CCn1c(SCC(=O)N2CCCCC2)nnc1-c1ccc(S(=O)(=O)N2CCN(C)CC2)cc1
1%	CC(C)c1ccc(N(C(=O)CNC(=O)c2ccco2)C(C(=O)NC2CCCC2)c2cccnc2)cc1 (centres undefined)
-17%	CCCCn1nnnc1NCc1ccc(C)cc1
-9%	O=C(Cn1nc(CNc2ccc(Cl)cc2)[n+]2c1CCCCC2)c1ccccc1
-14%	CCN(CCNC(=O)C1CCN(S(=O)(=O)c2cccc3cccnc23)CC1)c1ccccc1
-8%	N#CCN1C(=S)N=C(Nc2cccc(Cl)c2)C12CCCCC2
-7%	Cc1ccc(C(=O)Nc2cccc(NC(=O)c3ccc(C)c([N+](=O)[O-])c3)n2)cc1[N+](=O)[O-]
-12%	CC1CCCCN1CCn1c(=S)[nH]c2ncccc2c1=O (centres undefined)

3 entries out of the list above, arranged by the value under VDR inhibitor, descending.
mol | VDR inhibitor
O=C(NCc1ccccc1)N1CCN(c2ccccc2F)CC1 | 10%
Cc1ccc(S(=O)(=O)N2CCN(Cc3cc(Br)ccc3O)CC2)cc1 | 8%
COc1ccccc1N(CC(=O)N1CCc2ccccc2C1)S(C)(=O)=O | -10%
